miR-21 FLuc: qHTS Assay for Modulators of miRNAs and/orActivators of miR-21; HeLa miR-21 FLuc reporter, luciferase, 48 h; Potency, µM (doses to about 38.3 µM), for the others: top-dose reporter change, positive = more light; 340,000 tested, under 10 active; active = well fitted rising curve with a large enough effect; inconclusive = small, poorly fitted or top-dose-only effect; inactive = no such curve, though single readings can be large or run the other way;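 also: % of control where 0% means no effect; miR-21 action dims this reporter so a rising signal means less miR-21 action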
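HeLa miR-21-FLuc reporter line, endogenous miR-21; 2000 cells/well in DMEM/10% FBS; compound titration up to ~40uM final, 48 h, 37 degree Celsius; luciferase detection reagent, 15 min lysis, CCD luminescence.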
GLA inh pH 4.5: qHTS Assay for Inhibitors of Human alpha-Galactosidase at pH 4.5; Alpha-galactosidase A (Homo sapiens), P06280; purified enzyme, 4-MU-alpha-Gal fluorescence, pH 4.5; activity change, negative = inhibition, % at 105 µM; 230,000 tested, under 10 active; AID 1467, 2008; inconclusive = small, poorly fitted or top-dose-only inhibition, or a rising curve; inactive = flat fitted curve, though single readings scatter; no compound was filed as active;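 also: 0% = full activity with enzyme and -100% = basal without enzyme; dose as in the result columns while the protocol names 77 µM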
Target sequence (P06280 whole entry, looked up): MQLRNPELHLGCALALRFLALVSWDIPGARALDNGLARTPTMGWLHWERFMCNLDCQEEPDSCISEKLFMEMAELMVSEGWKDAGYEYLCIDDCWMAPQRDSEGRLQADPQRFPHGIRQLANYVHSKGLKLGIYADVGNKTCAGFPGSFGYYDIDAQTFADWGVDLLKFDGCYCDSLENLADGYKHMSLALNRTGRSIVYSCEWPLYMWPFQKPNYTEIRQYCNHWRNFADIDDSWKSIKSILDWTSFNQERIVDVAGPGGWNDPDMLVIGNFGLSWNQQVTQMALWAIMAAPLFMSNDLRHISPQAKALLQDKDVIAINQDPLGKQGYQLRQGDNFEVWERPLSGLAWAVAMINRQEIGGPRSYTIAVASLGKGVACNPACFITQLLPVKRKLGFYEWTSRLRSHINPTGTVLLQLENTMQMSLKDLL
Rango dissoc inh: qHTS Assay for Inhibitors of RanGTP induced Rango (Ran-regulated importin-beta cargo) - Importin beta complex dissociation; Snurportin-1 (Homo sapiens) + GTP-binding nuclear protein Ran (Homo sapiens) + Importin …; Biochemical FRET Rango-importin beta, RanGTP-induced dissociation; Potency, µM (top dose mostly 46.1 µM), without a hit: at the top dose activity change, negative = inhibition; 0.071% of 340,000 active; AID 540253, 2011; active means falling FRET ratio curve, often poorly fitted, with flat reads before Ran was added; inconclusive means other falling curves, or compound fluorescence or quenching; inactive means flat or rising ratio curve;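 also: potency is read from the fitted curve at half-maximal effect; % of control where 0% means no effect; nearly all actives have a fitted effect of over 45% in size; -100% = wells without RanGTP and RCC1; the record marks most hits as doubtful in a second field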
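Quantitative HTS using a FRET biosensor: 0.1 uM Rango, 0.25 uM importin beta, 0.6 uM Ran, 2 mM GTP, 0.2 uM RCC1 final, PBS with DTT, Tween-20 and BSA. Post-read taken 45 min after Ran addition.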
Rango complex inh: qHTS Assay for Inhibitors of Rango (Ran-regulated importin-beta cargo) - Importin beta complex formation; Importin subunit beta-1 (Homo sapiens), Q14974; Rango CFP/YFP FRET sensor + importin beta, 45 min; Potency, µM (highest dose often 92.2 µM), for inactives: top-dose inhibition of complex formation; 0.031% of 340,000 active; active = rising FRET ratio curve, often small or poorly fitted; inconclusive = mostly compound fluorescence or quenching in the first reads; inactive = flat curves in all reads;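 also: potency is read from the fitted curve at half-maximal effect; 0% = DMSO wells and 100% = buffer wells lacking importin beta; nearly all actives have a fitted effect of over 15% in size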
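FRET biosensor Rango (snurportin 1 IBB between N-terminal EYFP and C-terminal Cerulean), 50 nM in PBS/1 mM DTT/0.02% Tween-20/0.1% BSA, preincubated 5 min RT with compound; 0.125 microM importin beta added, 45 min RT, CFP/YFP FRET ratio read.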
* hit, by the source's call; u = inconclusive; x = not tested or not shown; & = joins results of further samples; [ ] = remark or other dose.

SMILES | miR-21 FLuc | GLA inh pH 4.5 | Rango dissoc inh | Rango complex inh
Cc1ccc2c(c1)cc(CN(Cc1ccco1)S(=O)(=O)c1ccccc1)c1nnnn12 | -2.7% | 4.2 | 8.9% | 0.0%
Cc1ccc(NC(=O)CCC(=O)N2CCOc3ccccc32)c(Cl)c1 | -8.8%&-23.5% | x | 41.9% | 0.1%
O=C(NCc1ccccc1)C(c1cccs1)N(C(=O)c1csnn1)C1CC1 (stereo not given) | 0.9% | -6.1 | 0.7% | 6.1%
O=C(COC(=O)c1ccc(O)cc1)Nc1cc(S(=O)(=O)N2CCOCC2)ccc1Cl | x | x | 0.7% | -6.6%
COc1ccc(C(=O)OCC(=O)Nc2ccccc2)cc1[N+](=O)[O-] | -1.6% | -14.4[21.1 µM] | -15.4% | 4.3%
Cc1ccc(C(=O)Nc2ccc(N3CCN(C)CC3)cc2)c(Cl)c1 | -57.4% | x | 2.4% | 0.7%
O=C(Cc1cccs1)Nc1nnc(SCC(=O)NC2CCCCC2)s1 | -8.3% | 5.8 | 0.8% | 0.0%
CCSc1nnc(-c2cc(Br)ccc2NC(C)=O)c(=O)[nH]1 | 1.5% | 3.6 | -4.2% | -2.7%
COc1ccc(S(=O)(=O)NCCCn2ccnc2)cc1C(C)(C)C | -3.8% | x | 45.3% | -4.0%
CCC(=O)N1CCC2(CC1)Oc1ccc(Cl)cc1C(=O)C21CC(c2ccc(Cl)cc2)=NO1 (stereo not given) | 12.8% | -8.2 | 2.9% | -4.3%
S=c1nc2[nH]c3ccccc3c2n[nH]1 | x | x | 5.7% | 3.0%
CCCCCCn1c(SCC(=O)c2ccccc2)nc2c1c(=O)[nH]c(=O)n2C | 1.5% | 6.5 | 0.8% | 1.3%
Cc1cccc(OCc2nc(-c3ccccn3)n[nH]2)c1 | -11.5% | 10.4 | 1.7% | 4.4%
COc1cccc(NC(=O)C2CCCN2C(=O)Nc2cccc(F)c2)c1 (stereo not given) | -1.0% | -4.8 | 23.2% | 1.2%
COc1cc(/C=C/C(=O)OCC(=O)NCCC2=CCCCC2)ccc1O | 9.6% | -15.3 | u | u
COc1ccccc1N1CCN(c2cc(C)nc3nc(C)nn23)CC1 | -5.2% | 3.5 | 8.1% | -0.6%
Cc1cc(C)nc(NC(=O)c2ccc(Cl)cc2Cl)n1 | -4.2% | -20.1 | -3.0% | 6.3%
COc1ccccc1OCC(=O)Nc1ccc(S(=O)(=O)N2CCCC2)cc1 | -0.2% | x | -5.1% | 2.2%
O=C(Nc1nc(-c2ccc(Br)cc2)cs1)c1cccnc1 | -1.6% | -12.8 | 3.4% | -2.1%
COc1ccc(OC)c(C2=Nn3c(nnc3-c3ccncc3)SC2)c1 | x | x | 19.5% | -0.1%
COc1ccccc1N1CCN(/N=C/c2c(C)nn(-c3ccccc3)c2C)CC1 | -2.9% | -25.2 | 11.5% | -2.4%
O=c1[nH]c(CSc2ncn[nH]2)nc2ccccc12 | -4.3% | 5.7 | -7.6% | 3.0%
COc1ccc(C(=S)N2CCC(C(N)=O)CC2)cc1Br | -2.4% | 8.1 | -0.6% | 2.2%
O=C(CCn1cnc2ccccc2c1=O)Nc1ccc(S(=O)(=O)N2CCCCC2)cc1 | -7.0% | 4.1 | -20.2% | 1.7%
COc1ccc(S(=O)(=O)N2CCCN(CC(=O)Nc3ccccc3F)CC2)cc1 | -0.4% | x | -1.0% | -5.9%

(next part)
SMILES | miR-21 FLuc | GLA inh pH 4.5 | Rango dissoc inh | Rango complex inh
Cc1nn2c(NCc3ccccn3)cc(C(C)C)nc2c1-c1ccccc1 | 0.8% | -14.2 | 8.2% | -1.3%
CCCn1c(C)cc(/C=C(\C#N)C(=O)OCC(=O)N(C)c2c(N)n(Cc3ccccc3)c(=O)[nH]c2=O)c1C | x | x | -0.1% | u
Cc1cc2ncc(C(=O)Nc3ccccc3)c(C)n2n1 | -13.7% | 3.3 | -10.3% | -2.4%
CCOC(=O)C(CCCOc1ccccc1C)C(=O)OCC | 4.8% | 0.6 | -7.6% | 0.8%
CC1CCC(C(C)C)C(OC(=O)C2=C3c4ccccc4S(=O)(=O)N3CC2)C1 (stereo not given) | -1.1% | -3.2 | -17.9% | 0.8%
Cc1nc2ccccc2cc1C(=O)O | 0.0% | 8.5 | 42.5% | 4.3%
COCCn1c(Cc2ccccc2)nnc1SCC(=O)N(C)C | -2.5% | -15.0 | 7.9% | -0.6%
CCn1c(CC(=O)Nc2ccc(C)cc2)nnc1SCC(=O)Nc1nc(C)cs1 | 0.2% | 4.4 | -14.1% | -0.8%
CCOC(=O)CN(c1ccccn1)S(=O)(=O)c1ccccc1 | 0.8% | 6.2 | 4.3% | -2.4%
COc1ccc(C(=O)COC(=O)c2sc(C)nc2C)cc1OC | x | x | -10.0% | 0.2%
Cc1c(-c2ccc(Cl)cc2)[n+](=O)c2c(n1[O-])CCCC2 | 1.3% | 1.5 | -1.1% | -1.3%
CCn1cc(C(=O)NCCCN2CCCC(C)C2)c(=O)c2cc(S(=O)(=O)N3CCc4ccccc4C3)ccc21 (stereo not given) | -2.2% | -6.7 | 0.3% | -2.2%
CC(C)C(=O)N[C@@H]1c2ccccc2CC[C@H]1OCc1ccccc1 | x | x | -26.2% | 0.2%
COc1ccc2[nH]c(C(=O)N/N=C/c3ccccc3OC)cc2c1 | 16.7% | x | 0.7% | 1.7%
Cc1c(Br)c([N+](=O)[O-])nn1CC(=O)Nc1cccc2nonc12 | 1.1% | -14.8 | -15.8% | 4.3%
CCOC(=O)c1cnc2nc(C)nn2c1N | 0.8% | -5.1 | -7.3% | -1.6%
Cc1c(Nc2cc(=O)oc3ccccc23)c(=O)n(-c2ccccc2)n1C | -1.9% | 0.6 | 2.8% | -3.9%
O=c1[nH]c(SCc2nc3ccccc3n2Cc2ccccc2)nc2ccccc12 | -10.1% | -2.1 | 14.5% | 1.8%
C=CCn1c(SC(C)C(=O)Nc2ccc(Cl)cn2)nnc1C1CC1 (stereo not given) | x | x | 13.8% | 5.5%
CN(CCC#N)C(=O)c1cc2c(s1)-c1ccccc1SC2 | -66.7% | x | -11.1% | u
Cc1c(NC(=O)c2nn3c(c2Br)NC(c2ccccc2)CC3C(F)(F)F)c(=O)n(-c2ccccc2)n1C (stereo not given) | 0.5% | 8.5 | -5.3% | -7.6%
O=C(c1ccccc1)N1N=C(c2ccco2)CC1c1cccs1 (stereo not given) | -9.8% | -0.4 | 19.2% | -0.7%
O=C(COC(=O)c1cc[n+]([O-])cc1)Nc1ccc2c(c1)OCCO2 | -5.7% | -2.3 | 0.8% | 0.4%
O=C(O)CCn1c(=O)[nH]c(=O)n(CCC(=O)O)c1=O | -0.7% | -2.7 | -1.4% | -4.2%
CC1CCN(CCCNC(=O)c2coc3nc4ccccc4nc23)CC1 | -22.4% | u | u | u

Continued:
SMILES | miR-21 FLuc | GLA inh pH 4.5 | Rango dissoc inh | Rango complex inh
O=C(Nc1nc(-c2ccncc2)cs1)C1COc2ccccc2O1 (stereo not given) | 8.4% | 6.8 | 15.4% | 0.4%
CC(=O)c1cccc(CN2CCC(C(=O)Nc3ccc(Oc4cccnc4)cc3)CC2)c1 | 15.8% | x | 1.8% | 1.0%
COc1ccc(-c2csc(N(CCCN(C)C)C(=O)c3ccccc3F)n2)cc1 | 12.5% | x | -9.2% | -4.0%
COc1ccc(OCc2nc(-c3ccc(F)c(F)c3)cs2)cc1 | -8.8% | -11.2 | -1.5% | -1.0%
COc1ccc(C(=O)/C=C/c2ccc3c(c2)OCCO3)cc1 | -24.8% | -6.9 | -9.0% | -2.6%
CCCCn1c(N)c(N(CC)C(=O)CSCc2ccc(C)cc2)c(=O)[nH]c1=O | -3.8% | x | -9.6% | -1.4%
C=C1CCN(C(C(=O)OC)C(C)C)S(=O)(=O)c2ccc(F)cc21 (stereo not given) | 3.4% | -5.3 | 11.3% | -2.5%
COC(=O)c1ccc(NC(=O)c2ccccc2SC)cc1 | -41.5% | 7.2 | 16.6% | 0.5%
COc1ccc(N2CCN(C(=O)CSc3nnc4c(C)cc5cc(C)ccc5n34)CC2)cc1 | -7.1% | -5.1 | 3.6% | -1.3%
COc1ccccc1C(=O)NNC(=O)C(=O)Nc1ccc(C)cc1 | 4.2% | x | 11.7% | -0.7%
CCOc1ccc(N2C(=O)CC(N3CCN(C(=O)CN4CCCC4)CC3)C2=O)cc1 (stereo not given) | -5.7% | -0.4 | 19.9% | -5.2%
CN1C(c2ccc(F)cc2)=CS/C1=C(\C#N)c1nnc2n1-c1ccccc1SC2 | -4.6% | -7.1 | 0.9% | -0.9%
COc1ccc(S(=O)(=O)Nc2ccc(Cc3ccncc3)cc2)cc1OC | 18.3% | x | 17.4% | 2.9%
CCOc1ccc(N=Cc2c(O)n(-c3cccc(C)n3)c(=O)c3ccccc23)cc1 | -6.2% | -3.3 | u | u
O=C(CN1C(=O)CCOc2ccccc21)Nc1cccc(S(=O)(=O)N2CCOCC2)c1 | x | x | 3.8% | -0.1%
Cc1ccc(CNC(=O)c2cc(Cl)cc(Cl)c2)n1C | -2.0% | x | 4.9% | -1.1%
CN(CCOc1ccc(Br)cc1)CC(=O)Nc1cccc(S(=O)(=O)NC2=NCCC2)c1 | 7.5% | -2.5 | 0.4% | 5.9%
CCC1(c2ccccc2)NC(=O)N(CC(=O)N(C)CC(=O)Nc2cccc(F)c2)C1=O (stereo not given) | 0.5% | x | 32.0% | 1.7%
Cc1nnc(N/N=C/c2c(O)n(-c3cccc(C(F)(F)F)c3)c(=O)c3ccccc23)[nH]c1=O | -3.6% | -4.0 | x | x
CCOC(=O)C1(CC2CCCCO2)CCN(S(=O)(=O)c2ccc(C)s2)CC1 (stereo not given) | 3.3% | -9.7 | 5.2% | -0.5%
CCCC(=O)N1CCCC(c2nc(-c3cccs3)no2)C1 (stereo not given) | -45.9% | 2.2 | 0.5% | -0.2%
Cc1c(Cl)cccc1NC(=S)N1CCN(Cc2ccc3c(c2)OCO3)CC1 | -7.1% | -3.1 | -9.5% | -4.0%
COC(=O)C1=C(C)NC(C)=C(C(=O)OC)C1c1ccc(NC(C)=O)cc1 | -8.0% | 1.0 | 1.6% | -3.2%
CC1(C)CC(=O)c2sc(NC(=O)c3cccs3)nc2C1 | 1.4% | -5.0 | -17.8% | u
Cc1ccc(C)c(Cn2cnc3c(nnn3-c3ccc(F)cc3)c2=O)c1 | 1.5% | 2.2 | -9.2% | 4.0%

Continued.
SMILES | miR-21 FLuc | GLA inh pH 4.5 | Rango dissoc inh | Rango complex inh
COc1ccc(S(=O)(=O)N(C)C)cc1NC(=O)CSc1nc(N)cc(N)n1 | -6.9% | 0.9 | 9.1% | 0.9%
CC(OC(=O)c1ccc2c(c1)OCCO2)C(=O)NC1CCCCC1C (stereo not given) | x | x | -0.5% | 1.4%
C=CCN(c1ccccc1)S(=O)(=O)c1cccc(C(=O)NCC(c2cccs2)N2CCOCC2)c1 (stereo not given) | x | x | 0.3% | 2.9%
CC(=O)N1CCN(c2ccccc2NC(=O)c2cc3ccccc3o2)CC1 | 1.5% | x | 0.1% | 0.3%
CC(=O)Nc1ccccc1NC(=O)COc1cccc2ccccc12 | -4.0% | x | 10.4% | 0.2%
COc1cc(OC)cc(-c2nnc(NC(=O)CCS(=O)(=O)c3ccc(F)cc3)o2)c1 | x | x | 1.7% | -0.2%

Profiles from above. Screens in order: miR-21 FLuc, GLA inh pH 4.5, Rango dissoc inh, Rango complex inh
Profile of `CC(=O)Nc1ccccc1NC(=O)COc1cccc2ccccc12` = -4.0%, x, 10.4%, 0.2%
Profile of `C=CCN(c1ccccc1)S(=O)(=O)c1cccc(C(=O)NCC(c2cccs2)N2CCOCC2)c1` (stereo not given) = x, x, 0.3%, 2.9%
Profile of `COc1cc(OC)cc(-c2nnc(NC(=O)CCS(=O)(=O)c3ccc(F)cc3)o2)c1` = x, x, 1.7%, -0.2%

Screens: PubChem BioAssay, National Center for Advancing Translational Sciences (NCATS)

These rows are one share of the data; count on the stated rates, not on these rows.
